Compound activity as filed in PubChem BioAssay.
Vaccinia Venus – vaccinia inhibition (Venus reporter) | Vaccinia virus Venus reporter expression, fluorescence | Potency, µM (doses to about 36.5 µM), for the others: at the highest dose activity change, negative = inhibition, actives largely listed as inhibitors | 0.46% of 330,000 active | AID 720580; active means well fitted inhibition curve with a large enough effect; inconclusive means small, poorly fitted or top-dose-only effect; inactive means no such curve, though single readings can be large or run the other way; tested in A549 cells; note: nearly all actives have a fitted effect of over 30% in size; inactives centre near -10
Vaccinia mCherry – vaccinia inhibition (mCherry reporter); Vaccinia virus mCherry reporter infection, fluorescence; about a quarter of the inactives have no number; Potency, µM (doses to about 36.5 µM), for inactives: top-dose activity change, negative = inhibition, most hits filed as inhibitors; 0.63% of 310,000 active; active = well fitted inhibition curve with a large enough effect; inconclusive = small, poorly fitted or top-dose-only effect; inactive = no such curve, though single readings can be large or run the other way; tested in A549 cells; note: nearly all actives have a fitted effect of over 35% in size; inactives centre near -10
* = called active by the depositor; i = inactive; ? = inconclusive; . = no result given; & = joins results of further samples; [ ] = another dose, or the depositor's remark. % is set by controls: 0 for no effect and ±100 for the full control effect; potency is the fitted concentration of half-maximal effect.

SMILES	Vaccinia Venus	Vaccinia mCherry
Cc1ccc2nc(-c3ccc(C)o3)c(NC3CCCC3)n2c1	-14%	-5%
CC1(C)C(=O)Nc2ccccc2N1C(=O)COC(=O)c1ccc(NC(N)=O)cc1	4%	i
CCc1c(O)nc(SCC(=O)Nc2nc3ccccc3s2)n(-c2ccccc2)c1=O	-14%	-8%
COc1ccc(CCNC(=O)c2ccc3nc(N4CCOCC4)sc3c2)cc1OC	-5%	i
COc1ccc(Cc2nc3ccc(C(=O)N4CCCCC4CO)cc3o2)cc1OC (configuration not stated)	-15%	?
Cc1cc(C)cc(N(CCC#N)C(=O)COC(=O)c2nc3nc(C)cc(C)n3n2)c1	-22%	-3%
CCOc1cccc(C(=O)Nc2ccccc2N2CCN(C(=O)C(C)C)CC2)c1	-12%	-7%
COc1ccc(C2CC2C(=O)c2ccccn2)cc1 (configuration not stated)	-1%	-6%
Cc1cc(=O)oc(C)c1C(=O)n1nc(C)c2c1C[C@@H]1[C@H]2C1(C)C	-5%	-14%
COc1ccccc1Oc1nc(-c2cccnc2)nc2ccccc12	-18%	i
CCOC1OC(=O)C(Cl)=C1Nc1ccc(C)cc1C (configuration not stated)	-8%	-25%
Clc1ccc2nc(NCc3ccccc3)c3nncn3c2c1	-2%	-1%
O=C(O)[C@@H]1CCCN1C(=O)COc1ccc2c3c(c(=O)oc2c1)CCC3	-1%	-10%
CN(C)Cc1nc2c(c(=O)[nH]1)C1(CCCCC1)Cc1ccccc1-2	0%	i
CCc1c(C)sc(NC(=O)C2CC2)c1C(=O)OC(C)C	-18%	i
O=C(OCc1ccccc1)N1CCc2ccccc21	-20%	i
O=C(O)c1ccc2c(c1)SC1=NS(=O)(=O)CCN12	6%	-15%
CCOC(=O)Cc1csc(NC(=O)c2csc3c2CCCC3)n1	-6%	-6%
COc1ccc(NC(=O)c2cc(C3CC3)nc3c2c(C)nn3-c2ccccc2)cc1	-9%	-10%
COC(=O)c1cn(NC(=O)c2ccc([N+](=O)[O-])c(C)c2)c(=O)c2ccccc12	-12%	-12%
C=CCOc1c(CNc2cccc(C(=O)O)c2)cccc1OC	0%	.
CCC(=O)Nc1c(C)n[nH]c1C	-9%	i
COc1cc(/C=C/C(=O)NC(=O)c2ccccc2O)ccc1OC(C)=O	?	5.6µM*
Cc1ccncc1CNC(=O)c1ccccc1	9%	-14%
O=C(CSc1ccccc1)Nc1ccc(-c2nc3ccccc3[nH]2)cc1	?	-18%
CC(C)c1ccc(NC2CCCN(C(=O)CCc3cnn(C)c3)C2)cc1 (configuration not stated)	-18%	i
Clc1ccccc1-c1cnc2sc(NCc3ccc4c(c3)OCO4)nn12	-23%	15%
CN(C)c1ccc(NC(=O)/C=C/c2ccccc2Cl)cc1	-14%	-7%
COc1ccccc1-c1noc2ncnc(Nc3cccc(C)c3C)c12	-20%	-13%
CC1C(=O)OC2CCN3CC=C(COC(=O)[C@](C)(O)[C@]1(C)O)C23 (some centres not stated)	-11%	-8%
O=C(NCc1ccccc1F)C12CC3CC(CC(C3)C1)C2	0%	i
CCNC(=O)C1(C)CCN(C(=O)c2ccc(OC)cc2OC)C1 (configuration not stated)	6%	33%[activator]
CNC[C@@H](CC1CCCCC1)NC[C@H](CC(C)C)NCCc1cccc(C(F)(F)F)c1	?	14µM*
Cn1c(=O)[nH]c(=O)c2c1nc(N1CCCCC1)n2CCCSc1nc2ccccc2s1	-28%	-2%
O=C(CNS(=O)(=O)c1ccc(Br)s1)N1CCN(c2ccccc2F)CC1	-17%	-25%
COc1ccccc1C(=O)NC(C)C(c1cccs1)N1CCN(C)CC1 (configuration not stated)	-13%	-24%
O=c1[nH]c(O)c(N=Nc2ccc(SC(F)F)cc2)c(=O)[nH]1	-13%	?
CC(Oc1ccc(Cl)cc1Cl)C(=O)N(Cc1ccco1)C1CCS(=O)(=O)C1 (configuration not stated)	-2%	0%
Cc1ccc(S(=O)(=O)N2CCN(Cc3nc4sc5c(c4c(=O)[nH]3)CCCC5)CC2)cc1	-3%	-12%
CC1CCN(C(=O)C(C)c2ccc([N+](=O)[O-])cc2)CC1 (configuration not stated)	6%	-1%
CCC(=O)c1ccc(OCC(=O)Nc2ccc3c(c2)OCCO3)cc1	-10%	-12%
Cc1c(NC(=O)CCC(=O)N2CCCCC2)c(=O)n(-c2ccccc2)n1C	-7%	.
Cc1ccc(Cn2nnnc2CN2CCC(O)(c3ccccc3F)CC2)cc1	-14%	-25%
O=C(O)CNC(=S)N(Cc1ccc(F)cc1)C1CCCCC1	-16%	-11%
O=C(Nc1ccc(CN2CCOCC2)cc1)c1ccc(-c2cc(Cl)ccc2Cl)o1	?	?
O=C(COC(=O)c1ccc(Cl)cc1[N+](=O)[O-])NC(=O)c1ccccc1	2%	i
CN1CCC(=O)N(CCSc2ccccc2)CC1	0%&-10%	-10%
CN1CCC(N2CCN(C3CN(CCc4ccccc4)S(=O)(=O)C3)CC2)CC1 (configuration not stated)	-4%	i
COc1ccc(NC(=O)c2oc3c(c2C)-c2nn(Cc4ccccc4Cl)cc2CC3)cc1OC	-2%	-15%
CCOc1ccc(-n2c(-c3ccc(OC)cc3)c[n+]3c2CCCCC3)cc1	-17%	i
O=C(O)CSc1ccc(Oc2ccc(SCC(=O)O)cc2)cc1	-13%	-4%
COc1ccc(CCCc2n[nH]c(=S)o2)cc1	-12%	-9%
C/C=C/C=C\C(=O)Nc1cccc(C2=NOC3(C2)C[C@H](C(N)=O)N(C(=O)/C=C/C)C3)c1 (some centres not stated)	-2%	-30%
CNC(=O)c1nnn(Cc2ccccc2)c1NC(=O)C(F)(F)F	-12%	-11%
Cc1cc(C)c(NC(=O)Cn2ncc3ccccc32)c(C)c1	-9%	-10%
CCn1c(C)nc2cc(S(N)(=O)=O)ccc21	1%	-1%
Cn1cc([N+](=O)[O-])c(C(=O)NNC(=O)c2ccc([N+](=O)[O-])cc2Cl)n1	-7%	i
O=C(c1ccccc1)c1cccc2ccccc12	-10%	i
COc1ccc(S(=O)(=O)Nc2ccc3oc4c(c3c2)CCCC4)cc1	-19%	?
NC(=O)c1sc2nc3c(cc2c1N)CCCCCC3	-31%	-29%
Next entries:
SMILES	Vaccinia Venus	Vaccinia mCherry
CCc1noc(C)c1C(=O)NCCc1ccc(F)cc1	-4%	-15%
COC(=O)C1CCN(c2nc(CN(C)C3CCOC3)nc3cc(OC)c(OC)cc23)CC1 (configuration not stated)	13%	3%
CC(C)CC1NC(=O)c2cccnc2-n2c1nc1ccccc1c2=O (configuration not stated)	-25%	i
CC1Sc2ccc(S(=O)(=O)N3CCC(C(=O)NCc4ccc(Cl)cc4)CC3)cc2NC1=O (configuration not stated)	-16%	-16%
O=C(c1cccc(NS(=O)(=O)c2ccccc2)c1)N1CCN(c2ccccc2)CC1	-7%	?
N#Cc1cccc(C(Br)S(=O)(=O)c2ccccc2)c1 (configuration not stated)	?	?
CCN1CCc2nc(NC(=O)c3cc(F)c(F)cc3Cl)sc2C1	2%	4%
O=C1NCN(c2ccccc2)C12CCN(C(CCc1ccccc1)c1nnnn1C1CCCCC1)CC2 (configuration not stated)	-7%	i
O=C(CCc1nnc2n(Cc3ccc(F)cc3)c(=O)c3ccccc3n12)NCCN1CCOCC1	-11%	-10%
COc1ccccc1NC(=O)c1nnn(Cc2ccccc2)c1NC(=O)C(F)(F)F	-22%	-10%
Cc1ccc(Cl)cc1N1CCN(C(=O)COc2ccc3c(c2)CCC3)CC1	-10%	i
Cc1cc(C)n(-c2cc(N3CCN(S(=O)(=O)c4ccc(Cl)cc4)CC3)ccc2[N+](=O)[O-])n1	-22%	-13%
CC(O)(c1ccncc1)c1nc(-c2cccc(C(F)(F)F)c2)cs1 (configuration not stated)	-27%	-3%
O=C(NCc1ccccc1)c1ccc(COCC(F)(F)F)o1	-10%	-13%
COc1ccc(C)cc1-n1c(-c2ccc(C)cc2)cc2c1CC(C)(C)CC2=O	-5%	-15%
COc1ccc2cc3cc(C(=O)NCc4cccnc4)oc3nc2c1	-3%	-6%
CCOc1ccc(S(=O)(=O)N2CCc3cc(OC)c(OC)cc3C2)cc1	-12%	-16%
COc1ccc(OC)c(C(O)c2ncc(-c3cccc4ccccc34)[nH]2)c1 (configuration not stated)	0%	10%
O=C(NC1CC(=O)N(c2ccc(F)cc2)C1)C1CCCCC1 (configuration not stated)	-3%	3%
Cc1noc(C)c1C(=O)N1CCN(C(=O)c2sc3cc(Cl)ccc3c2Cl)CC1	-11%	-21%
O=C(CSc1nc2ncc(Cl)cc2[nH]1)NCC(=O)Nc1ccc(F)c(F)c1F	-11%	0%
O=C(NNC(=O)C1CCN(Cc2cccc(F)c2)CC1)c1cccc(Cl)c1	-4%	.
Fc1cccc(COc2ccccc2CNc2ccccc2)c1	-14%	i
COc1ccc(C(c2nnnn2C(C)(C)C)N2CCN(C/C=C/c3ccccc3)CC2)cc1 (configuration not stated)	3%	i
CCCc1cc(=O)[nH]c(SCC(=O)Nc2c(C)n(C)n(-c3ccccc3)c2=O)n1	-3%	i
Cc1ccc(S(=O)(=O)C2CS(=O)(=O)CC2O)cc1 (configuration not stated)	-11%	-9%
CCC(CC)c1nc(C(N)=O)c2[nH]c(=O)n(-c3ccc(OC)c(OC)c3)c2n1	-25%	?
Cc1ccc(-n2ncc3c(Nc4cccc(C(F)(F)F)c4)ncnc32)cc1C	-4%	-10%
Cn1nnnc1NCc1cccc(Cl)c1	-6%	-1%
CC(=O)c1cc(C#N)c(SCc2ccccc2C#N)nc1C	?	.
O=C(Nc1cccc(Cl)c1)c1cc(-c2ccc3c(c2)OCCO3)on1	-10%	-21%
Cc1cc(Br)c(NC(=O)COn2nnc3ccc(S(C)(=O)=O)cc32)c(Br)c1	-12%	i
Cc1cc(Br)c(NC(=O)CCl)c(Br)c1	?	?
CCn1ncc(Cl)c1C(=O)NC(=S)Nc1ccccc1Br	-6%	0%
O=C(CCCn1nnnc1CN1CCOCC1)N1CCN(c2ccccc2F)CC1	0%	-20%
Cc1ccc(NC(=O)CN(C)S(=O)(=O)c2cccc3cccnc23)cc1C	-7%	-24%
CC[C@]12c3[nH]c4ccc(Cl)cc4c3CCN1C(=O)[C@@H](CC(=O)NCc1ccco1)C[C@@H]2C(=O)N1CCN(C(=O)c2ccco2)CC1	-18%	-3%
Cc1ccc(NC(=O)CC2S/C(=N/N=C/c3ccco3)NC2=O)cc1Cl (configuration not stated)	4%	i
O=C(O)c1ccc(NCc2cccc(Br)c2)cc1	-11%	i
O=c1[nH]cnc2cc(-c3ccc(Br)cc3)sc12	-7%	-12%

Some of the entries above in a different format:
Values in the order – Vaccinia Venus | Vaccinia mCherry
- CC(=O)c1cc(C#N)c(SCc2ccccc2C#N)nc1C
 : ? | .
- O=C(Nc1cccc(Cl)c1)c1cc(-c2ccc3c(c2)OCCO3)on1
 : -10% | -21%

The list goes on:
SMILES	Vaccinia Venus	Vaccinia mCherry
O=C1NC2(CCCCCC2)Cc2ccccc21	-13%	-20%
CC(C)(C)Cc1c(-c2ccc(Cl)cc2)nc2ccc(Br)cn12	-6%	-12%
O=C1CSC(=S)N1N=Cc1cccc(OCc2ccccc2)c1	-17%	-2%
COc1ccc(/C=N/NC(=O)c2[nH]ncc2Br)c(OC)c1	-7%	i
Cc1ccccc1-c1nc(CS(=O)CC(=O)NCc2ccccc2)c(C)o1 (configuration not stated)	-14%	?
Cc1nnc(N2C(=O)C(=O)/C(=C(/O)c3ccc4c(c3)CC(C)O4)C2c2ccccc2F)s1 (configuration not stated)	-18%	i
CCSc1ncc(Cl)c(C(=O)N(Cc2ccccc2Cl)C2CCS(=O)(=O)C2)n1 (configuration not stated)	2%	i
CCOc1ccc(NC(=O)CSC2=Nc3ccccc3C3=NC(CC(=O)NCc4ccccc4OC)C(=O)N23)cc1 (configuration not stated)	-11%	-2%
Cn1c(=NC(=O)CSCC(=O)N2CCCCC2)sc2ccccc21	-24%	.
COc1cc(/C=N/NC(N)=O)ccc1OC(=O)c1ccco1	-12%	-2%
COc1ccc(OCC(=O)N2CCc3ccccc32)c([N+](=O)[O-])c1	-13%	-9%

17 structures out of the list, arranged by heavy-atom count, ascending:
SMILES	Vaccinia Venus	Vaccinia mCherry
Cc1cc(Br)c(NC(=O)CCl)c(Br)c1	?	?
CCn1c(C)nc2cc(S(N)(=O)=O)ccc21	1%	-1%
COc1ccc(CCCc2n[nH]c(=S)o2)cc1	-12%	-9%
O=C(O)c1ccc2c(c1)SC1=NS(=O)(=O)CCN12	6%	-15%
NC(=O)c1sc2nc3c(cc2c1N)CCCCCC3	-31%	-29%
CC1CCN(C(=O)C(C)c2ccc([N+](=O)[O-])cc2)CC1 (configuration not stated)	6%	-1%
O=c1[nH]c(O)c(N=Nc2ccc(SC(F)F)cc2)c(=O)[nH]1	-13%	?
CC(=O)c1cc(C#N)c(SCc2ccccc2C#N)nc1C	?	.
CCNC(=O)C1(C)CCN(C(=O)c2ccc(OC)cc2OC)C1 (configuration not stated)	6%	33%[activator]
COc1ccc(OCC(=O)N2CCc3ccccc32)c([N+](=O)[O-])c1	-13%	-9%
COc1ccccc1Oc1nc(-c2cccnc2)nc2ccccc12	-18%	i
O=C(CSc1ccccc1)Nc1ccc(-c2nc3ccccc3[nH]2)cc1	?	-18%
Cc1c(NC(=O)CCC(=O)N2CCCCC2)c(=O)n(-c2ccccc2)n1C	-7%	.
CCSc1ncc(Cl)c(C(=O)N(Cc2ccccc2Cl)C2CCS(=O)(=O)C2)n1 (configuration not stated)	2%	i
COc1ccc(Cc2nc3ccc(C(=O)N4CCCCC4CO)cc3o2)cc1OC (configuration not stated)	-15%	?
COc1ccc(NC(=O)c2oc3c(c2C)-c2nn(Cc4ccccc4Cl)cc2CC3)cc1OC	-2%	-15%
CCOc1ccc(NC(=O)CSC2=Nc3ccccc3C3=NC(CC(=O)NCc4ccccc4OC)C(=O)N23)cc1 (configuration not stated)	-11%	-2%
